GIRK2 activ: activators of human GIRK2 potassium channels. P48051. HEK293-GIRK2 thallium flux, Thallos fluorescence. calls only for hits at 25 µM. actives 0.05% (n = 63,000);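 active means among the strongest 0.2% of first-round signals and kept after retests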;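 further: first round at about 10 µM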
Target sequence (P48051 whole entry, looked up): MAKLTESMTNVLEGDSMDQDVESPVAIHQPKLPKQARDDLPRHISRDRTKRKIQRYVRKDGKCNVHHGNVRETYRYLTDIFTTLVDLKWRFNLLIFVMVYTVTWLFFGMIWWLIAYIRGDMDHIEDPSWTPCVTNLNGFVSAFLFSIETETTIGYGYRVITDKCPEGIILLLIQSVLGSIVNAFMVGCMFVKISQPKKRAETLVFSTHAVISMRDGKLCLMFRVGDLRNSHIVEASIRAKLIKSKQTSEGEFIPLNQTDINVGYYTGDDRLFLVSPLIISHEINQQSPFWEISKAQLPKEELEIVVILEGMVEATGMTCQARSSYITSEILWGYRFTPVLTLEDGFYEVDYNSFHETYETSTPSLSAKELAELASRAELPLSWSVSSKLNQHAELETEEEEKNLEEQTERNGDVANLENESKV
Calls only; i = inactive.

GIRK2 activ	mol
i	O=C(NCCCO)C(=O)NCCc1ccccc1
i	O=C(NCCCc1ccccc1)NCC1(CO)CC1
i	O=S(=O)(Cc1ccccc1)Nc1ccc(-n2ccnc2)nc1
i	Cc1nc2oc3ccccc3c(=O)c2c(=O)n1Cc1ccccc1
i	FC(F)(F)c1ccc(/C=C/c2cc(Cl)cc(Cl)c2)cc1
i	Cc1cc2oc3c(c(=O)c2cc1Cl)C(c1cccc(Cl)c1)N(CCN(C)C)C3=O (configuration not stated)
i	O=C(c1ccno1)N1CCC(Oc2ccccn2)CC1
i	Cc1ccc(S(=O)(=O)c2c(C)nn(-c3ccccc3)c2OC(=O)C2CCCCC2)cc1
i	CCCCCCCCCCC1C(=O)OC(C(=O)O)C1(O)C(=O)O (configuration not stated)
i	COC(=O)c1ccccc1NC(=O)CN1CCCN(Cc2ccccc2)S1(=O)=O
i	O=C(NCc1ccncc1)c1ccc(Cn2cnc3ccccc32)o1
i	CC(=O)Nc1sc2c(c1-c1nc3ccccc3s1)CCN(C(C)C)C2
i	O=C(NCCc1ccccc1)Nc1nnc(-c2ccco2)o1
i	O=C(Cn1c(=O)oc2ccccc21)N1CC(c2nc(-c3cccs3)no2)C1
i	O=C(c1ccc([N+](=O)[O-])o1)N1CCN(C(=O)C2CC2c2cccs2)CC1 (configuration not stated)
i	Cc1cc(C)n(-c2cc(NC(=O)CSc3ccncc3)ncn2)n1
i	Cc1nc(OCC(=O)NCCCn2ccnc2)cc(-n2cccn2)n1
i	COCCOC(=O)C1=C(C)NC(=O)NC1c1ccc(C(=O)O)cc1 (configuration not stated)
i	COC(=O)c1cc(OC)cc(O)c1C(=O)c1c(O)cc(C)cc1O
i	COc1ccc(NC(=O)Cn2nc3c(Oc4ccc(C)cc4)nccn3c2=O)cc1Cl
i	CC(NC(=O)CCCSc1ccc(NC(=O)C2CC2)nn1)c1ccccc1 (configuration not stated)
i	O=c1cc(CN2CCN(CCO)CC2)c2cc(Cl)ccc2o1
i	CC(=O)Cn1c(=O)c2c(nc3n(-c4ccc(C)cc4C)c(-c4ccccc4)cn23)n(C)c1=O
i	O=C(CSc1nc2ccccc2o1)N1CCC(c2nnc(C3CC3)o2)CC1
i	c1cncc(-c2nnc3sc(-c4csc5c4CCCC5)nn23)c1
i	COc1ccc(F)cc1S(=O)(=O)NCCOc1ccc2c(c1)OCO2
i	Cc1cn2c3c(=O)n(CCC(C)C)c(=O)n(C)c3nc2n1-c1ccc(S(N)(=O)=O)cc1
i	CN(Cc1cc(=O)[nH]c2ccccc12)C(=O)c1ccc(-c2ccccc2[N+](=O)[O-])o1
i	CC(=O)[C@H]1CC[C@H]2[C@@H]3CCC4=CC(=O)CC[C@]4(C)[C@H]3CC[C@]12C
i	CCc1ccccc1-n1c(C)c(C)n2c3c(=O)n(CC(N)=O)c(=O)n(C)c3nc12
i	CCOc1ccc(-c2nc(Cn3nnc(C(=O)Nc4ccc(OC)cc4OC)c3N)c(C)o2)cc1
i	COC(=O)CC1=CC(SCC(=O)Nc2ccc(Cl)cc2F)=Nc2ccccc2N1
i	CS(=O)(=O)N1CCc2nc(NC(=O)Nc3ccccc3C(F)(F)F)sc2C1
i	COc1cn2c(cc1=O)C(=O)N(CCNC(=O)c1ccc3c(c1)OCO3)CC2
i	CN1CCc2c(sc(NC(=O)CSc3ccccc3)c2-c2nc3ccccc3s2)C1
i	Cc1ccc(Cl)cc1N1CCN(C(=O)CCCn2c(=O)[nH]c3ccsc3c2=O)CC1
i	CCCc1cc2c(=O)c(-c3ccc4c(c3)OCCO4)c(C)oc2cc1OC(=O)CC
i	O=C(O)C1=CO[C@@H](O[C@@H]2O[C@H](CO)[C@@H](O)[C@H](O)[C@H]2O)[C@@H]2C(CO)=CC[C@H]12
i	CCc1nccn1CC1CCN(S(=O)(=O)CCN2C(=O)CCCC2=O)CC1
i	CS(=O)(=O)Nc1ccc2c(c1)N(S(=O)(=O)c1ccccc1)CCC2

Fetched one by one from above:
GIRK2 activ	mol
i	O=C(O)C1=CO[C@@H](O[C@@H]2O[C@H](CO)[C@@H](O)[C@H](O)[C@H]2O)[C@@H]2C(CO)=CC[C@H]12
i	COc1cn2c(cc1=O)C(=O)N(CCNC(=O)c1ccc3c(c1)OCO3)CC2

Further structures follow:
GIRK2 activ	mol
i	COc1ccc(CC(C)(O)CNC(=O)c2ccc(Br)o2)cc1 (configuration not stated)
i	Cc1nccn1CC1CCN(C(=O)c2ccc(S(=O)(=O)N(C)C)cc2)CC1
i	CC(NC(=O)C(=O)c1c[nH]c2ccccc12)c1ccccc1 (configuration not stated)
i	Nc1nc(N2CCN(c3ccccn3)CC2)ncc1S(=O)(=O)c1ccccc1
i	Cc1cc(NCc2ccccn2)n2nc(C)c(-c3ccccc3)c2n1
i	COc1ccc(S(=O)(=O)Nc2ccc3c(c2)CCCN3S(=O)(=O)c2ccc(F)cc2)cc1C
i	Cc1nn(C)cc1S(=O)(=O)NCCN(C)C
i	Cc1noc(CNC(=O)C2CCN(C(=O)Cc3ccccc3Cl)CC2)n1

3 entries out of the list, ordered by molar mass, largest number first:
GIRK2 activ	mol
i	COc1ccc(S(=O)(=O)Nc2ccc3c(c2)CCCN3S(=O)(=O)c2ccc(F)cc2)cc1C
i	Cc1cc(NCc2ccccn2)n2nc(C)c(-c3ccccc3)c2n1
i	CC(NC(=O)C(=O)c1c[nH]c2ccccc12)c1ccccc1 (configuration not stated)

Continued:
GIRK2 activ	mol
i	O=C(CSc1nccn1-c1ccc(C(=O)NCc2ccccc2)cc1)NC1CCCCC1
i	COc1cc(-c2c(NC(=O)C(C)C)oc3c(C)cccc3c2=O)cc(OC)c1OC
i	O=C(Nc1ccc(Cl)c(N2CCCS2(=O)=O)c1)NC(c1ccccc1)c1ccccc1
i	Cc1oncc1C(=O)NCC(C)(O)C1CC1 (configuration not stated)
i	Cc1cc(C)n(CCNC(=O)c2ccc3c(c2)OCO3)n1
i	COc1cccc(S(=O)(=O)N2CCN(c3cc(-n4cccc4)ncn3)CC2)c1
i	COc1ccc(-n2nnc(C(=O)NC3CC3)n2)cc1
i	CCCCN1CC(c2nc3ccccc3n2CCOC)CC1=O (configuration not stated)
i	O=C(NCc1ccc(OCc2ccccc2)cc1)c1ccc(=O)[nH]c1
i	CCOc1cn(C)c(C(=O)NCc2cccs2)cc1=O
i	CCOc1ccc(C(=O)Nc2cc(-c3cccs3)nn2-c2nc(C(C)C)cc(=O)[nH]2)cc1OCC
i	CCOc1ccc2ccccc2c1C(=O)NCc1cc(-c2ccco2)n(C)n1
i	Cc1cc([N+](=O)[O-])ccc1NC(=O)c1ccc2c(c1)OCCO2
i	COc1ccccc1NC(=O)CSc1nccn1-c1cccc(C(=O)Nc2ccccc2)c1
i	COc1ccc(-c2cnc(SCC(N)=O)n2-c2cccc(C(F)(F)F)c2)cc1
i	O=C(NCCC(O)c1cccc2ccccc12)C(=O)Nc1ccc(F)c(F)c1 (configuration not stated)
i	COCCCn1c(-c2cc([N+](=O)[O-])cc([N+](=O)[O-])c2)nc2nc3ccccc3nc21
i	COc1ccccc1OCC(=O)Nc1ccc2nc(C)n(-c3ccc(C)cc3)c(=O)c2c1
i	Cc1ccccc1Cn1c(N2CCN(CC(N)=O)CC2)nc2c1c(=O)[nH]c(=O)n2C
i	O=C(CN1CCCCCC1)Nc1nc2ccc(Br)cc2s1
i	CN(CC(=O)Nc1cccc(NS(C)(=O)=O)c1)C(=O)c1ccc(=O)[nH]c1
i	CCn1c(=O)c2c(nc3n2CCCN3c2cc(OC)ccc2OC)n(C)c1=O
i	CCc1nc2sc(C(c3ccccc3Cl)N3CCCCC3)c(O)n2n1 (configuration not stated)
i	Cc1cccc(Cn2cc(C(=O)O)c(S(=O)(=O)N3CCOCC3)n2)c1
i	Cc1cc(C)c2sc(N(CC3CCCO3)C(=O)c3ccc(Br)s3)nc2c1 (configuration not stated)
i	Cc1noc(CNC(=O)C2CCN(S(C)(=O)=O)CC2)n1
i	Cc1ccccc1OCC(O)Cn1c(N2CCCC2)nc2c1c(=O)n(C)c(=O)n2C (configuration not stated)
i	CC(=O)Nc1ccc(C(=O)N2CCC(Cn3c(C)nc4ccccc43)CC2)cc1
i	COc1cc(C(C)=O)ccc1OCC(=O)Nc1cc(N2CCC(C)CC2)ncn1
i	COc1cc(C)c(S(=O)(=O)NCc2ccccn2)cc1C
i	Cc1ccc(N2CC(C(=O)NCc3cc(-c4ccncc4)n(C4CCCC4)n3)CC2=O)cc1 (configuration not stated)
i	O=S(=O)(Cc1ccc(C(F)(F)F)cc1)NCC1COC2(CCCCC2)O1 (configuration not stated)

Compounds shown so far that contain a COOH group (4):
GIRK2 activ	mol
i	CCCCCCCCCCC1C(=O)OC(C(=O)O)C1(O)C(=O)O (configuration not stated)
i	COCCOC(=O)C1=C(C)NC(=O)NC1c1ccc(C(=O)O)cc1 (configuration not stated)
i	O=C(O)C1=CO[C@@H](O[C@@H]2O[C@H](CO)[C@@H](O)[C@H](O)[C@H]2O)[C@@H]2C(CO)=CC[C@H]12
i	Cc1cccc(Cn2cc(C(=O)O)c(S(=O)(=O)N3CCOCC3)n2)c1

The list continues:
GIRK2 activ	mol
i	O=C(COC(=O)c1cc2cc([N+](=O)[O-])ccc2oc1=O)c1ccc2ccccc2c1
i	COc1ccccc1CNC(=O)C1=Cc2cc(Cl)cc(OC)c2OC=C1
i	O=C(CSCc1ccccc1)NCC#CCN1CCCC1
i	O=C(/C=C/c1ccc2c(c1)OCO2)N1CCN(CC(O)c2cccs2)CC1 (configuration not stated)
i	COc1ccc(C)cc1S(=O)(=O)NCCOc1cccc(C(F)(F)F)c1
i	O=C(NCc1cccs1)N1CCN(c2nc3c(F)cc(F)cc3s2)CC1
i	COc1cccc(N2CC(C(=O)NCc3cc(-c4ccco4)n(C)n3)CC2=O)c1 (configuration not stated)
i	COc1cc(NC(=O)Nc2ccc3c(c2)C(=O)Nc2cc(C)ccc2O3)cc(OC)c1OC
i	COc1cc(C(=O)Nc2cc(C)nc3c(C)cc(C)cc23)cc(OC)c1OC
i	CC(O)c1nc2ccccc2n1CCCc1ccccc1 (configuration not stated)
i	Cc1cccc(NC(=O)Nc2ccc3c(c2)CCCN3C(=O)c2cccs2)c1
i	CN1CCOc2ccc(NC(=O)CCn3ccc(=O)[nH]c3=O)cc2C1=O
i	COc1ccc(Cn2cc(C(=O)c3ccccc3)c(=O)c3cc4c(cc32)OCO4)cc1
i	O=C(Cn1nc2c(c1NC(=O)C1COc3ccccc3O1)CSC2)NCc1ccco1 (configuration not stated)
i	O=C(c1ccccc1C(F)(F)F)N1CCN(C(=O)C2CC2c2ccc3c(c2)OCO3)CC1 (configuration not stated)
i	Cc1csc(SCC2CCN(C(=O)CSCc3ccccc3)CC2)n1

Four of the compounds above, field by field.
CCc1nc2sc(C(c3ccccc3Cl)N3CCCCC3)c(O)n2n1 (configuration not stated)
  GIRK2 activ = i
CCOc1cn(C)c(C(=O)NCc2cccs2)cc1=O
  GIRK2 activ = i
O=C(NCc1ccc(OCc2ccccc2)cc1)c1ccc(=O)[nH]c1
  GIRK2 activ = i
Cc1ccc(Cl)cc1N1CCN(C(=O)CCCn2c(=O)[nH]c3ccsc3c2=O)CC1
  GIRK2 activ = i

(list continues)
GIRK2 activ	mol
i	Cn1c(C(F)(F)F)nn(CCNC(=O)Cn2cnc3c2c(=O)n(C)c(=O)n3C)c1=O
i	COCCCNc1oc(-c2ccc(COc3ccc(Cl)cc3)o2)nc1C#N
i	COc1cccc(CC(=O)N2CCC(OC)CC2)c1
i	Cc1nc(C)c(C(=O)Nc2ccc3c(c2)C(=O)N(C)CCO3)s1
i	CC1CN(CC(O)Cn2c3ccccc3c3ccccc32)CC(C)O1 (configuration not stated)
i	CCOC(=O)c1csc(NC(=O)NCCc2ccc(OC)cc2)n1
i	N#Cc1ccc2[nH]cc(S(=O)(=O)c3ccc(F)c(F)c3)c(=O)c2c1
i	CCOc1ccc(-c2cc(=O)n(CCCC(=O)NCc3ccc(Cl)cc3)cn2)cc1
i	CCOC(=O)c1cnn(-c2cc(C)nc3c(C)c(-c4ccc(OC)c(OC)c4)nn23)c1N
i	O=C(NCCc1nc2c(c(C(F)(F)F)n1)CCCC2)c1ccsc1
i	COc1ccc(S(=O)(=O)NCCn2nc(-c3ccc(F)cc3)ccc2=O)cc1
i	CCOC(=O)CCC(=O)N1CCN(C2=NN=C(c3ccccc3)CS2)CC1
i	CC(C)NC(=O)Cn1cccc(-c2nc(-c3ccc(F)cc3)no2)c1=O
i	COc1ccc(Cl)cc1C(=O)N(Cc1ccoc1)Cc1cccs1
i	O=C(Nc1nc(-c2ccccn2)cs1)C1CCN(S(=O)(=O)c2ccc(F)cc2)CC1
i	COc1ccc(Cl)cc1NC(=O)COc1cc(C)nc(N2CCCC2)n1
i	CCOc1ccc(NC(=O)NCC2CCN(C(=O)c3cccnc3)CC2)cc1
i	O=C(COc1ccc2ccccc2c1)NCC(O)c1ccoc1 (configuration not stated)
i	COc1ccc(N2C(=O)C3N=NN(CC(=O)Nc4ccc(C(C)C)cc4)C3C2=O)cc1Cl (configuration not stated)
i	Cc1cc(NC(=O)NC2CC2)ccc1N1CCCCC1=O
i	CN(C)C(CNS(=O)(=O)c1ccc(Br)s1)c1cn(C)c2ccccc12 (configuration not stated)
i	O=C(NCc1ccc(Cl)cc1)N1CCN(CCn2ncccc2=O)CC1
i	C=CCNc1nn(CC(=O)Nc2ccc(C)cc2)c(N)c1-c1nc(-c2ccc(Cl)cc2)no1
i	COc1ccc(CN2CCN(c3cc(C)nc4c5c(C)cc(C)nc5nn34)CC2)cc1F
i	Cc1ccc(OCC(=O)Nc2ccc3c(c2)N(S(=O)(=O)c2ccccc2)CCC3)cc1
i	COc1ccccc1CNC(=O)CN1CCN(c2ccccc2F)C1=O
i	COc1ccc(-n2ccnc(NCc3ccccc3)c2=O)cc1Cl
i	O=C(CCCSc1nnc2c(n1)[nH]c1ccccc12)NC1CCCCC1
i	CCOc1ccc(-c2noc(CN3N=NC4C(=O)N(c5ccc(F)c(F)c5)C(=O)C43)n2)cc1OC (configuration not stated)
i	Cc1cc(NC(=O)C2CCCN2S(=O)(=O)c2cccs2)n(-c2nc3c(F)cccc3s2)n1 (configuration not stated)

Source: PubChem

Only part of the results is shown; count on the stated rates, not on these rows.
